Screening data as filed in PubChem.
MARV entry inh: blocks Marburg virus binding to or entry into cells | actives 1.8% (n = 300,000) | Marburg virus pseudotyped entry inhibition, cell reporter; control for the full effect not named in the record; about a third of the inactives were read at about 46 µM | Potency, µM (series often up to 37.8 µM), inactives show at the highest dose activity change, negative = inhibition, usual class: inhibitors; active = well fitted inhibition curve with a large enough effect; inconclusive = small, poorly fitted or top-dose-only effect, or effect the other way; inactive = flat fitted curve, though single readings scatter; tested in HEK293 cells; about a fifth of its hits are not listed in these tables; also: % is scaled to controls: 0 for no effect and ±100 for the full control effect; luciferase read-out
SARS PLP yeast: inhibitors of SARS-CoV papain-like protease in yeast. S. cerevisiae expressing SARS-CoV PLpro, growth rescue; control for the full effect not named in the record. Potency, µM (highest dose often 32.9 µM), for the others: at the top dose activity, positive = growth rescue. actives 0.19% (n = 330,000); active means well fitted rising curve with a large enough effect; inconclusive means small, poorly fitted or top-dose-only effect; inactive means no such curve, though single readings can be large or run the other way; also: 0% is about no effect; nearly all actives have a fitted effect of over 55% in size; growth read by luminescence after 48 h
Cruzain noTriton: cruzain (T. cruzi) inhibition without detergent; purified cruzain, Z-FR-AMC fluorescence, no detergent; Potency, µM, without a hit: max response, negative = inhibition, usual class: inhibitors; actives 2.3% (n = 200,000);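 also: plate controls were enzyme without inhibitor for no effect and buffer without enzyme for full effect; nearly all actives have a fitted effect of over 40% in size; top concentration of the series not given in the record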
Target sequence (P25779 123-467 limits assumed): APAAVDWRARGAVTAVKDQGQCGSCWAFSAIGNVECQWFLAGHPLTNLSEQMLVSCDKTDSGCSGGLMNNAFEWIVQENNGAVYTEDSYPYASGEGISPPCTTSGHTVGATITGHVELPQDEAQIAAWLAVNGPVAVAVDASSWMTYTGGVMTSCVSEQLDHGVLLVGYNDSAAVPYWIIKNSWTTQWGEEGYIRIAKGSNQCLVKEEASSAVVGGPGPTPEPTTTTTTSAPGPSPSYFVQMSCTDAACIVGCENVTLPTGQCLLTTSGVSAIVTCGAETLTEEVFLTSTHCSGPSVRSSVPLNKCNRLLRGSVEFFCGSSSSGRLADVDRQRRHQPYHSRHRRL
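Purified cruzain at 1.5 nM, pre-incubated 15 min with compound at room temperature in 100 mM sodium acetate pH 5.5, 5 mM DTT, 0.00005% Triton X-100. Reaction started with 2 uM Z-FR-AMC; AMC fluorescence increase over 60 s gives rate.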
RE007 growth inh: less growth of the S. pombe RE007 Vpr strain; S. pombe RE007 Vpr strain, BacTiter-Glo ATP luminescence, 24 h; control for the full effect not named in the record; Potency, µM (highest dose often 92.2 µM), for the others: at the highest dose activity change, negative = less growth; actives 0.21% (n = 360,000); AID 651644; active = well fitted falling curve with a large enough effect; inconclusive = small, poorly fitted or top-dose-only effect; inactive = no such curve, though single readings can be large or run the other way;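 also: % is scaled to controls: 0 for no effect and ±100 for the full control effect; nearly all actives have a fitted effect of over 50% in size; the assay follows cell death caused by Vpr and the record does not say whether a fall means rescue or toxicity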
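Fission yeast strain RE007, carrying one chromosomally integrated HIV-1 vpr copy, was seeded at OD 0.01 in PMG+AL medium with 23 nL pinned compound. After 24 h at 30 °C and 99% humidity, viability was read by BacTiter-Glo luminescence.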
NS1 inh: influenza NS1 inhibition; S. cerevisiae slowed by influenza A NS1, growth recovery by OD600; Potency, µM (titrated, usually from 46.1 µM), without a hit: at the highest dose activity, positive = more growth; actives 0.4% (n = 270,000); AID 2326; active means well fitted rising curve with a large enough effect; inconclusive means small, poorly fitted or top-dose-only effect; inactive means no such curve, though single readings can be large or run the other way; also: nearly all actives have a fitted effect of over 50% in size
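S. cerevisiae expressing influenza A NS1, grown in glucose, washed, then diluted 1:100 into pH 6.0 -URA galactose medium with 23 nl compound. Growth recovery read as OD600; NS1-free strain serves as control.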
LASV entry inh: inhibitors of Lassa virus binding or cell entry; Lassa virus pseudotype entry inhibition, cell reporter; control for the full effect not named in the record; Potency, µM (highest dose often 37.9 µM), for inactives: top-dose activity change, negative = inhibition, most hits filed as inhibitors; actives 1.2% (n = 300,000); active means well fitted inhibition curve with a large enough effect; inconclusive means small, poorly fitted or top-dose-only effect, or effect the other way; inactive means flat fitted curve, though single readings scatter; tested in HEK293 cells; also: % is scaled to controls: 0 for no effect and ±100 for the full control effect; nearly all actives have a fitted effect of over 50% in size; luciferase read-out
2A StopGo: FMDV 2A StopGo reporter, luciferase signal | human cells with a luciferase reporter of 2A StopGo recoding; control for the full effect not named in the record | Potency, µM (doses to about 57.9 µM), without a hit: at the highest dose signal change, negative = less light | actives 1.2% (n = 410,000); active = well fitted falling curve with a large enough effect; inconclusive = small, poorly fitted or top-dose-only effect; inactive = no such curve, though single readings can be large or run the other way; tested in HEK293T cells; also: % is scaled to controls: 0 for no effect and ±100 for the full control effect; nearly all actives have a fitted effect of over 45% in size; luciferase light after 4 h
Cruzain inh Det: blocks cruzain activity in presence of Triton detergent; Potency, µM, for inactives: max response, negative = inhibition, usual class: inhibitors; purified cruzain, Z-FR-AMC fluorescence, 0.01% Triton; P25779; actives 0.43% (n = 200,000); AID 1478;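 also: plate controls were neutral wells for no effect and buffer without enzyme for full effect; nearly all actives have a fitted effect of over 40% in size; top concentration of the series not given in the record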
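Detergent-containing run (0.01% Triton X-100) in acetate buffer pH 5.5 with 5 mM DTT: enzyme at 1.5 nM final, 15 min compound preincubation at room temperature, then 2 uM Z-FR-AMC substrate. Activity taken as 60 s fluorescence increase at 360/450 nm.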
The depositor's hits bear a star; ? = inconclusive; nt = not tested or not shown; & = joins results of further samples; [ ] = another dose, or the depositor's remark. Unless noted, calls follow the shape of the dose curve; as a rule, active = well fitted curve in the direction sought with a large enough effect; inconclusive = small, poorly fitted or top-dose-only effect, or another doubt; inactive = no such curve, though single readings can be large; an effect the other way counts as inactive or inconclusive. Potency is read from the fitted curve at half-maximal effect.

SMILES	MARV entry inh	SARS PLP yeast	Cruzain noTriton	RE007 growth inh	NS1 inh	LASV entry inh	2A StopGo	Cruzain inh Det
Cc1c(NC(=O)c2cccc(NC(=O)c3ccco3)c2)cccc1C(=O)O	16%	0%	-4%	-5%	2%	5%	nt	3.2%
CCN(CC)C(=O)C1CC(=O)N(c2ccc(OC)cc2)C1c1ccc(OC)cc1 (centres undefined)	-10%	1%	-3%	-10%	-1%	-27%	-6%	3.0%
COc1ccc(N(C)S(=O)(=O)c2ccc3c(c2)NC(=O)CC(=O)N3)c(OC)c1	nt	0%	nt	12%	2%	nt	1%	nt
CCc1ccc(C(=O)CCC(=O)Nc2cccc(S(=O)(=O)N3CCCCC3)c2)cc1	?	0%	nt	147%	nt	-30%	-5%	nt
CCN(CCCNC(=O)c1cc2c(=O)[nH]c3ccccc3c2s1)c1ccccc1	-3%[46.1 µM]	nt	-8%	nt	nt	-3%[46.1 µM]	-4%	-1.6%
CCOC(=O)N1CCC(NC(=O)c2cccc3c2C(=O)N(CCOC)C3)CC1	nt	0%	0%	4%	?	nt	-13%	2.7%
Cc1cc(C)c2c(N)c(C(=O)Nc3ccc(F)cc3)sc2n1	nt	1%	nt	12%	0%	nt	14%	nt
CC1CCCCC1NC(=O)C1CCC(CNS(=O)(=O)c2ccccc2)CC1 (centres undefined)	7%	-1%	nt	6%	-2%	?	-18%	nt
COc1cc2c(cc1OC)C(C1C(=O)CC(C)CC1=O)N(C(=O)CCl)CC2 (centres undefined)	13%	-4%	1%	11%	5%	0%	9%	-2.4%
O=C(COc1cccnc1[N+](=O)[O-])N1CCc2ccccc21	-1%[46.1 µM]	0%	nt	1%	nt	11%[46.1 µM]	31%[activator]	nt
O=C1c2ccccc2-n2c1nc1ccccc1c2=O	nt	-13%	-2%	?	-40%	nt	7%&7%	2.3%
Cc1oc2cc3oc(=O)c(CC(=O)NCc4ccccc4)c(C)c3cc2c1C	-1%[46.1 µM]	nt	-8%	nt	nt	-2%[46.1 µM]	28%	-0.4%
Cn1nnc2cc(C(=O)Nc3cccnc3)ccc21	-4%	1%	-6%	5%	1%	11%	21%	2.8%
CC(=O)Nc1ccc(S(=O)(=O)N2CCN(Cc3ccccn3)CC2)cc1	19%	8%	-1%	-6%	-2%	17%	nt	5.0%
CCOC(=O)C1=C(N)OC2=C(C(=O)CC(C)(C)C2)C1c1ccco1 (centres undefined)	-10%	0%	-1%	-19%	-8%	24%	16%	-6.5%
O=C(CSc1nc2ncc(Cl)cc2[nH]1)NC1CCS(=O)(=O)C1 (centres undefined)	-5%[46.1 µM]	0%	nt	0%	nt	7%	2%	nt
Cc1ccc2[nH]c(=O)c(COC(=O)C3CCCCC3)cc2c1	26%[46.1 µM]	-1%	nt	-2%	10%	1%[46.1 µM]	26%	nt
C/C(=N\O)C1(C)N(O)C(C)(C)C(c2ccco2)=[N+]1[O-] (centres undefined)	1%[46.1 µM]	18%	-3%	2%	7%	-13%	-2%	-2.9%
O=C1CCc2cccc(O)c2N1	14%	nt	nt	-7%	nt	?	-5%	nt
CCCCOc1ccc(CCN)cc1Cl	?	-12%	-2%	-5%	5%	6%	31%[activator]	-1.1%
Nn1c(SCC(=O)Nc2ccc3c(c2)OCCO3)nncc1=O	?	25%	nt	-5%	6%	20%[46.1 µM]	15%	nt
COc1ccc(Oc2ccc(/C=N/NC(=O)c3cccnc3)cc2[N+](=O)[O-])cc1	-29%[46.1 µM]	-3%	nt	4%	nt	nt	0%	nt
C=CCn1c(O)c(C(C)=NCc2cccnc2)c(=O)[nH]c1=O	7%	6%	-4%	3%	1%	?	23%	2.2%
CC(C)c1ccc(Nc2c(-c3ccccc3O)nc3cnccn23)cc1	2%[46.1 µM]	nt	-20%	nt	nt	-2%[46.1 µM]	?	-12%
Nc1nnc(SCC(=O)Nc2ccccc2N2CCOCC2)s1	13%[46.1 µM]	-2%	-16%	14%	2%	-2%	-16%	-4.0%

(more compounds)
SMILES	MARV entry inh	SARS PLP yeast	Cruzain noTriton	RE007 growth inh	NS1 inh	LASV entry inh	2A StopGo	Cruzain inh Det
O=c1nc(NCc2ccco2)sc2ncccc12	27%	7%	-3%	8%	-3%	17%	?	-0.6%
O=C(CSc1nnc(Cc2cc(=O)[nH]c(=O)[nH]2)n1-c1ccc(Cl)cc1)NCC1CCCO1 (centres undefined)	12%	9%	0%	11%	-1%	?	12%	3.6%
CC1(C)CC(=O)C(C(=O)c2ccccc2)C(=O)C1Cl (centres undefined)	nt	3%	nt	20%	-2%	nt	-11%	nt
COc1ccc(CCNC(=O)c2cnn(-c3cccc(C)c3)c2C2CCNCC2)cc1OC	nt	nt	-8%	nt	nt	?	10%	-5.9%
CCOC(=O)N1CCN(C(=O)c2cc3cc(Cl)ccc3[nH]2)CC1	nt	-2%	nt	8%	-4%	nt	9%	nt
Cc1cc(C)nc(Sc2ccc3nnnn3n2)n1	14%	0%	-3%	-8%	-4%	26%	3%	5.3%
COc1cccc(-c2nc(CS(=O)(=O)CC(=O)NCc3ccc(C)cc3)c(C)o2)c1	-16%[46.1 µM]	nt	?	nt	nt	-52%[46.1 µM]	-29%	-2.5%
O=C(c1cn(-c2ccccc2)nc1-c1cccc([N+](=O)[O-])c1)N1CCCCC1	2%[46.1 µM]	1%	nt	-12%	7%	-30%	-7%	nt
O=C(Nc1ccc(NC(=O)c2ccco2)cc1)c1cnccn1	15%	0%	-5%	10%	-28%	7%	41%[activator]	-2.4%
O=C(O)c1cc(N/N=C/c2ccc(N3CCOCC3)s2)ccc1Cl	3%	28%	16%	8%	11µM*	14%	?	-24%
CCc1nc2ccc(C(=O)NCc3cccc(Br)c3)cc2nc1CC	nt	nt	-10%	nt	nt	10%[46.1 µM]	36%[activator]	-0.4%
CCCCn1cc(C(=O)c2cc(Br)ccc2O)cc(C#N)c1=O	?	-16%	-10%	-13%	8%	?	?	-7.1%
c1ccc(CN=C2Nc3ccccc3CS2)nc1	?	-1%	nt	-1%	nt	?	19%	nt
CC(C)NC(=O)NC(=O)CN1C(=O)NC(Cc2c[nH]c3ccccc23)C1=O (centres undefined)	0%	-3%	nt	-1%	nt	3%	8%	nt
COc1cccc(-n2c(=O)n(Cc3ccccc3)c(=O)c3[nH]cnc32)c1	24%	0%	nt	-6%	-3%	-1%	-11%	nt
CCOC(=O)c1c(NC(=S)N2CCN(C)CC2)sc(C)c1-c1ccccc1	?	-5%	nt	-15%	-15%	8.9µM*	-8%	nt
CCC(Sc1nc2nccnc2c(=O)n1Cc1ccc(OC)cc1)C(=O)NC1CCCCC1 (centres undefined)	nt	nt	13%	nt	nt	9%[46.1 µM]	7.1µM*	-2.9%
COc1ccc(CNC(=S)Nc2ccc(F)c(Cl)c2)cc1OC	-24%[46.1 µM]	-1%	nt	-17%	6%	-11%	5%	nt
Cc1ccc(NC(=O)Cn2c(=O)n(-c3ccc(CC(=O)NCC4CCCO4)cc3)c(=O)c3ccccc32)cc1 (centres undefined)	23%[46.1 µM]	nt	20%	nt	nt	24%[46.1 µM]	-1%	-1.8%
CC(C)CC1(C)N=C(c2ccccc2)C(=S)N1 (centres undefined)	7%	-4%	nt	-19%	-4%	12%	40%[activator]	nt
COc1ccc(Cc2n[nH]c(=S)n2NC(=O)Nc2ccc(Cl)c(Cl)c2)cc1	nt	-2%	nt	-9%	-107%	nt	0%	nt
Cc1ccc2c(CN3CCN(S(=O)(=O)/C=C/c4ccccc4)CC3)cc(=O)oc2c1	-11%	17%	25µM*	1%	?	1%	-1%	-2.0%
CS(=O)(=O)Nc1cccc(C2=NN(C(=O)c3ccccc3Cl)C(c3ccccc3O)C2)c1 (centres undefined)	6%	-10%	13%	24%	-1%	-34%	39%[activator]	-14%
CC1CC1C(=O)Nc1nc(-c2cccs2)c(-c2cccs2)s1 (centres undefined)	-9%	-47%	8%	-6%	-8%	-22%	-6%	-11%
CC(=O)Nc1ccc(NC(=O)C(C)OC(=O)/C=C/c2cn(-c3ccccc3)nc2-c2cccnc2)cc1 (centres undefined)	?	21%	?	-2%	10%	?	?	-8.9%

(next part)
SMILES	MARV entry inh	SARS PLP yeast	Cruzain noTriton	RE007 growth inh	NS1 inh	LASV entry inh	2A StopGo	Cruzain inh Det
CCCC(=O)NC(c1cccs1)c1cc(Cl)c2cccnc2c1O (centres undefined)	3.5µM*	5%	nt	16%	8%	?	-21%	nt
O=C(NC1CCS(=O)(=O)C1)c1ccc(S(=O)(=O)NCC2CCCO2)cc1 (centres undefined)	-9%[46.1 µM]	2%	12%	5%	2%	9%	-16%	3.3%
CCOc1ccccc1C(=O)NC(CO)C(=O)O (centres undefined)	5%	4%	10%	19%	-7%	5%	4%	2.5%
c1ccc(C(c2cccs2)c2c[nH]c3ccccc23)cc1 (centres undefined)	nt	nt	?	nt	nt	?	?	-8.7%
COc1ccc(NC(=O)CCS(=O)(=O)c2nc(-c3cccs3)cc(C(F)(F)F)n2)cc1	?	nt	-1%	nt	nt	?	?	-8.4%
O=C(CC(NS(=O)(=O)c1ccc(Cl)cc1)c1ccco1)N1CCc2ccccc21 (centres undefined)	?	2%	6%	6%	-1%	-2%	0%	-7.1%
CC(=O)c1ccc(N2CCN(C(=O)C3CCCN(S(=O)(=O)c4cnc[nH]4)C3)CC2)cc1 (centres undefined)	18%	-1%	-5%	8%	-6%	30%	16%	-8.1%
CCCC[C@H](CN[C@@H](CNC)[C@H](C)CC)NCCC12CCC(CC1)C2	nt	-1%	nt	6%	-16%	nt	-2%	nt
COc1ccc(OC)c(S(=O)(=O)NCCc2sc(-c3ccc(C)cc3)nc2C)c1	nt	nt	?	nt	nt	-2%[46.1 µM]	49%[activator]	-8.4%
CCOC(=O)Cc1csc(NC(=O)Cc2ccc(Cl)cc2)n1	?	-1%	nt	-7%	-5%	-28%[46.1 µM]	-21%	nt
COC(=O)c1ccccc1NC(=O)CSc1n[nH]c(-c2ccco2)n1	-15%[46.1 µM]	-2%	nt	2%	-25%	-8%	-19%	nt
